AID923 – qHTS Assay for Allosteric/Competitive Inhibitors of Caspase-1: Spectroscopic Profiling in AFC Spectral Region; compound fluorescence, AFC spectral region (405/520 nm); almost no hit is shown here; Potency, µM (series often up to 57.5 µM), for the others: top-dose fluorescence increase, hits mostly activators; hit rate 1.1% among 75,000; active = well fitted activation curve with a large enough effect; inconclusive = small, poorly fitted or top-dose-only effect;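 note: 0% is about no effect; scaled to a free AFC standard on each plate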
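Baseline compound fluorescence (AFC region, 405 nm ex/520 nm em) taken from the intercept of kinetic reads with 50 nM caspase-1 and 5 uM Ac-WEHD-AFC; normalized to an on-plate AFC standard curve; compounds titrated up to 57 uM.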
TSHR agonist – TSH receptor (human) agonism; HEK293-CNG-TSHR cells (CNG channel as cAMP sensor), membrane potential dye, cAMP; Potency, µM (highest dose often 57.1 µM), without a hit: top-dose activation, actives largely listed as activators; hit rate 0.48% among 73,000; AID 926; active = well fitted activation curve of enough size with the parental cells flat; inconclusive = any curve in the parental cells; inactive = parental cells flat and receptor cells flat or falling; note: % of control where 0% means no effect; weak receptor curves with flat parental cells got no call and are not listed
Target sequence (P16473 whole entry, looked up): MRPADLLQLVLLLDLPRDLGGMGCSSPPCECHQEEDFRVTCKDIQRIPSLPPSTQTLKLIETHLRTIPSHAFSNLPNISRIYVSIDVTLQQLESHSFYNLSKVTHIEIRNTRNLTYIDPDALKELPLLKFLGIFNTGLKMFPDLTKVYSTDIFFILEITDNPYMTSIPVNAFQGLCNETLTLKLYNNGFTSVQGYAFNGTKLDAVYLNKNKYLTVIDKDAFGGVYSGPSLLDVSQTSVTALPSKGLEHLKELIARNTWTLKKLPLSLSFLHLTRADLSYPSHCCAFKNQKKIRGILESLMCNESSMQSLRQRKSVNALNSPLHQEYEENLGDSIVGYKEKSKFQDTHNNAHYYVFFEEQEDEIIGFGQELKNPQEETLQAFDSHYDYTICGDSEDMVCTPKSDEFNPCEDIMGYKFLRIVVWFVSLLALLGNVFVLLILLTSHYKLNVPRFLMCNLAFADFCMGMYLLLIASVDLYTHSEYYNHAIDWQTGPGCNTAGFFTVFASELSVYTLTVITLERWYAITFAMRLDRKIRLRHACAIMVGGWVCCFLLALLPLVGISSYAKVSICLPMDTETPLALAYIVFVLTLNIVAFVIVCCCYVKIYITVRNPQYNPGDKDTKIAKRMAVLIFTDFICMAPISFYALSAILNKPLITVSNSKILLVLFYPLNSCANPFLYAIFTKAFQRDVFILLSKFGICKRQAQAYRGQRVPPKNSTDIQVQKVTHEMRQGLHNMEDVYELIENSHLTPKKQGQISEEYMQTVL
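HEK 293 cells stably expressing TSHR and a cAMP-gated CNG channel; parental CNG-only cells as counterscreen. Cells preloaded 60 min with membrane potential dye plus 100 uM RO 20-1724, then compound 30 min; fluorescence read at 590 nm.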
* marks the source's active call; other numbers are inactive results; ? = inconclusive; . = not tested or not shown. Potency is the fitted concentration of half-maximal effect.

Start of the data: the first ten compounds, to show the layout:
(1) COC(=O)[C@@]1(Cc2ccc(OC)cc2)[C@@H]2[C@@H](CC(=O)[C@H]2CC(=O)C(=O)N2CCCC2)CN1C(=O)c1ccccc1
(2) CC1Cc2nc(SCC(=O)N3CCOCC3)n(-c3ccccc3)c(=O)c2S1 (centres undefined)
(3) CN(C)c1oc(-c2ccccc2Cl)nc1S(=O)(=O)c1ccccc1
(4) O=C(/C=C/C(=O)Oc1ccccc1C(=O)O)Oc1ccccc1C(=O)O
(5) N#Cc1c(N)nc(SCc2ccncc2)c(C#N)c1-c1cccs1
(6) O=c1oc2ccccc2n1CCCOc1ccccc1
(7) CCNC(=O)CCC(N)C(=O)O (centres undefined)

| Assay by compound | 1 | 2 | 3 | 4 | 5 | 6 | 7 |
| --- | --- | --- | --- | --- | --- | --- | --- |
| AID923 | 12% | -1.8% | -0.7% | 0.4% | 2.5% | 1.3% | 0.3% |
| TSHR agonist | . | . | . | . | . | . | . |

(8) CC1(C)C(O)C=C[C@@]2(C)C1CC(=O)O[C@@]1(C)C3=CC(=O)OC(c4ccoc4)[C@]3(C)CCC21 (some centres undefined)
(9) COc1cc(C(C)=O)cc(OC)c1O
(10) COC(=O)[C@@H]1C[C@@H]2CC[C@@H](O)C[C@@H]2N1CC1CCCCC1

| Assay by compound | 8 | 9 | 10 |
| --- | --- | --- | --- |
| AID923 | -2.1% | -0.8% | 2.2% |
| TSHR agonist | . | . | . |

The listing, from the first entry:
(1) COC(=O)[C@@]1(Cc2ccc(OC)cc2)[C@@H]2[C@@H](CC(=O)[C@H]2CC(=O)C(=O)N2CCCC2)CN1C(=O)c1ccccc1
(2) CC1Cc2nc(SCC(=O)N3CCOCC3)n(-c3ccccc3)c(=O)c2S1 (centres undefined)
(3) CN(C)c1oc(-c2ccccc2Cl)nc1S(=O)(=O)c1ccccc1
(4) O=C(/C=C/C(=O)Oc1ccccc1C(=O)O)Oc1ccccc1C(=O)O
(5) N#Cc1c(N)nc(SCc2ccncc2)c(C#N)c1-c1cccs1

| Assay by compound | 1 | 2 | 3 | 4 | 5 |
| --- | --- | --- | --- | --- | --- |
| AID923 | 12% | -1.8% | -0.7% | 0.4% | 2.5% |
| TSHR agonist | . | . | . | . | . |

(6) O=c1oc2ccccc2n1CCCOc1ccccc1
(7) CCNC(=O)CCC(N)C(=O)O (centres undefined)
(8) CC1(C)C(O)C=C[C@@]2(C)C1CC(=O)O[C@@]1(C)C3=CC(=O)OC(c4ccoc4)[C@]3(C)CCC21 (some centres undefined)
(9) COc1cc(C(C)=O)cc(OC)c1O
(10) COC(=O)[C@@H]1C[C@@H]2CC[C@@H](O)C[C@@H]2N1CC1CCCCC1

| Assay by compound | 6 | 7 | 8 | 9 | 10 |
| --- | --- | --- | --- | --- | --- |
| AID923 | 1.3% | 0.3% | -2.1% | -0.8% | 2.2% |
| TSHR agonist | . | . | . | . | . |

(11) CC(=O)OC1CC2C(C)(C)C(=O)CC[C@]2(C)C2CC[C@]3(C)C(=CC(=O)OC3c3ccoc3)[C@]12C (some centres undefined)
(12) O=C(OC1CCCCC1)c1ccc(NC(=O)c2ccco2)cc1
(13) N#Cc1ccc(C23CC4(C2)[C@H](CN(Cc2ccc(-c5ccccc5)cc2)[C@@H]4c2ccccc2)C3c2ccc(C(F)(F)F)cc2)cc1 (some centres undefined)
(14) CCC1=C(OC(=O)N(CC)CC)N2C(=O)OC(=NCC(=O)OC)[C@]2(Cc2ccccc2)[C@H]2C1=CC[C@H]1C(=O)N(c3ccccc3)C(=O)[C@H]12
(15) OCc1cc(C(O)CNCCCCCCOCCCCc2ccccc2)ccc1O (centres undefined)

| Assay by compound | 11 | 12 | 13 | 14 | 15 |
| --- | --- | --- | --- | --- | --- |
| AID923 | -0.8% | -2.0% | 0.8% | 0.3% | -4.1% |
| TSHR agonist | . | . | . | . | . |

(16) COC(=O)C1=C(C)N=C2SCCC(=O)N2C1/C=C/c1ccccc1 (centres undefined)
(17) COC(=O)c1ccc(C(NC(=O)OCc2ccccc2)/C(I)=C/[C@@H](C)C(=O)NCc2ccc(C)o2)cc1 (some centres undefined)
(18) COc1cccc(OC)c1OCCCN1CCOCC1
(19) COC(=O)[C@@H]1C[C@@]2(O)[C@@H](O)[C@@H](O)[C@@H](O)C[C@H]2N1Cc1ccc(-c2ccccc2)cc1
(20) COC1=CC(C)C2CC3OC(=O)CC4C(C)=C(OC)C(=O)C([C@]2(C)C1=O)[C@]34C (some centres undefined)

| Assay by compound | 16 | 17 | 18 | 19 | 20 |
| --- | --- | --- | --- | --- | --- |
| AID923 | -0.3% | 2.2% | -0.7% | -0.7% | -1.0% |
| TSHR agonist | . | . | . | . | . |

(21) CC1=C(C2=C(C)C(C(C)C)C3=C(C(=O)C(O)C3O)C2O)C(O)C2=C(C(O)C(O)C2=O)C1C(C)C (centres undefined)
(22) COc1ccc(Cc2nc(-c3ccc(Br)o3)no2)cc1OC
(23) COC(=O)c1c(OC)cc2c(c1C)Oc1c(Cl)c(OC(C)=O)c(Cl)c(C)c1C(=O)O2
(24) COC(=O)[C@@H]1C[C@@]2(O)[C@H](O)[C@H](O)[C@H](O)C[C@H]2N1Cc1cc(OC)cc(OC)c1
(25) COc1ccc(OC)c(NC(=O)CN(c2ccc(C(C)C)cc2)S(=O)(=O)c2c(C)noc2C)c1

| Assay by compound | 21 | 22 | 23 | 24 | 25 |
| --- | --- | --- | --- | --- | --- |
| AID923 | 3.9% | 1.6% | -4.2% | 6.4% | 0.3% |
| TSHR agonist | . | . | . | . | . |

(26) CC(=O)OC1CC(OC(C)=O)[C@]2(C)C(CC(OC(C)=O)[C@@]3(C)C4=CC(=O)OC(c5ccoc5)[C@]4(C)CCC32)C1(C)C (some centres undefined)
(27) CSCCC(N)C(=O)NC(CC(C)C)C(=O)NC(Cc1ccccc1)C(=O)O (centres undefined)
(28) C#CCCCCCCCCCCCC(=O)CC(O)COC(C)=O (centres undefined)
(29) CCC1=C(OC(=O)N(CC)CC)N2C(=O)OC(=NCC(=O)OC)[C@]2(C)[C@H]2C1=CC[C@H]1C(=O)N(CC)C(=O)[C@H]12
(30) C=C1CCC(O)C/C1=C\C=C1/CCCC2(C)C1CCC2C(C)/C=C/C(C)C(C)C (centres undefined)

| Assay by compound | 26 | 27 | 28 | 29 | 30 |
| --- | --- | --- | --- | --- | --- |
| AID923 | -0.7% | -1.0% | 1.1% | 1.2% | -3.7% |
| TSHR agonist | . | . | . | . | . |

(31) CC(C)N(Cc1nc(-c2ccccc2)no1)C(=O)COc1ccccc1
(32) CCC1=C2CC[C@H]3C(=O)N(CC)C(=O)[C@H]3[C@H]2[C@@]2(C)C(=NCCc3c[nH]c4ccccc34)OC(=O)N2C1=O
(33) CC(C)C[C@@H](CC(=O)N[C@@H](CCCN)CC(=O)N[C@@H]1CCNC[C@H]1C(=O)N[C@H](CC(=O)N[C@@H](CCC(=O)O)CC(=O)O)Cc1c[nH]c2ccccc12)NC(=O)[C@@H]1CCCC[C@H]1N
(34) CC(C)C[C@@H](CC(=O)N[C@@H](CCC(=O)O)CC(=O)O)NC(=O)[C@@H]1CCCC[C@H]1NC(=O)C[C@H](CCCN)NC(=O)C[C@H](CO)NC(=O)[C@@H]1CCCC[C@H]1N
(35) NCCC[C@@H](CC(=O)N[C@@H]1CCNC[C@H]1C(=O)N[C@H](CC(=O)N[C@@H](CCC(=O)O)CC(=O)O)Cc1c[nH]c2ccccc12)NC(=O)C[C@H](Cc1c[nH]c2ccccc12)NC(=O)[C@@H]1CNCC[C@H]1N

| Assay by compound | 31 | 32 | 33 | 34 | 35 |
| --- | --- | --- | --- | --- | --- |
| AID923 | 1.2% | -0.5% | . | . | . |
| TSHR agonist | . | . | 4% | 25% | ? |

(36) CC(C)[C@@H](CC(=O)N[C@@H]1CCCC[C@H]1C(=O)N[C@H](CC(=O)N[C@@H](CCC(=O)O)CC(=O)O)Cc1c[nH]c2ccccc12)NC(=O)C[C@H](Cc1ccccc1)NC(=O)[C@@H]1CNCC[C@H]1N
(37) CC(C)C[C@@H](CC(=O)N[C@@H](CCC(=O)O)CC(=O)O)NC(=O)[C@@H]1CCCC[C@H]1NC(=O)C[C@H](CCCN)NC(=O)C[C@H](Cc1c[nH]c2ccccc12)NC(=O)[C@@H]1CCCC[C@H]1N
(38) CC(C)C[C@@H](CC(=O)N[C@H](CC(=O)N[C@@H]1CCCC[C@H]1C(=O)N[C@H](CC(=O)N[C@@H](CCC(=O)O)CC(=O)O)Cc1c[nH]c2ccccc12)C(C)C)NC(=O)[C@@H]1CNCC[C@H]1N
(39) NCCC[C@@H](CC(=O)N[C@@H]1CCCC[C@H]1C(=O)N[C@H](CC(=O)N[C@@H](CCC(=O)O)CC(=O)O)Cc1ccccc1)NC(=O)C[C@H](Cc1ccccc1)NC(=O)[C@@H]1CCCC[C@H]1N
(40) NCCC[C@@H](CC(=O)N[C@@H]1CCCC[C@H]1C(=O)N[C@H](CC(=O)N[C@@H](CCC(=O)O)CC(=O)O)Cc1ccccc1)NC(=O)C[C@H](Cc1c[nH]c2ccccc12)NC(=O)[C@@H]1CNCC[C@H]1N

| Assay by compound | 36 | 37 | 38 | 39 | 40 |
| --- | --- | --- | --- | --- | --- |
| AID923 | . | . | . | . | . |
| TSHR agonist | -2% | 7% | 5% | ? | 13% |

(41) CC(C)C[C@@H](CC(=O)N[C@@H](CCCN)CC(=O)N[C@@H]1CCNC[C@H]1C(=O)N[C@H](CC(=O)N[C@@H](CCC(=O)O)CC(=O)O)Cc1c[nH]c2ccccc12)NC(=O)[C@@H]1CNCC[C@H]1N
(42) CC(C)C[C@@H](CC(=O)N[C@@H](CCC(=O)O)CC(=O)O)NC(=O)[C@@H]1CNCC[C@H]1NC(=O)C[C@H](CCCN)NC(=O)C[C@H](CO)NC(=O)[C@@H]1CNCC[C@H]1N
(43) CC(C)C[C@@H](CC(=O)N[C@@H](CCCN)CC(=O)N[C@@H]1CCCC[C@H]1C(=O)N[C@H](CC(=O)N[C@@H](CCC(=O)O)CC(=O)O)Cc1c[nH]c2ccccc12)NC(=O)[C@@H]1CCCC[C@H]1N
(44) CC(C)C[C@@H](CC(=O)N[C@@H](CCC(=O)O)CC(=O)O)NC(=O)[C@@H]1CNCC[C@H]1NC(=O)C[C@@H](NC(=O)C[C@H](CO)NC(=O)[C@@H]1CNCC[C@H]1N)C(C)C
(45) CC(C)C[C@@H](CC(=O)N[C@H](CC(=O)N[C@@H]1CCNC[C@H]1C(=O)N[C@H](CC(=O)N[C@@H](CCC(=O)O)CC(=O)O)Cc1ccccc1)C(C)C)NC(=O)[C@@H]1CNCC[C@H]1N

| Assay by compound | 41 | 42 | 43 | 44 | 45 |
| --- | --- | --- | --- | --- | --- |
| AID923 | . | . | . | . | . |
| TSHR agonist | 5% | ? | 6% | 10% | ? |

This is a subset, so the mix of outcomes need not match the whole.
